Source: PubChem
Sfp PPTase inh = Sfp phosphopantetheinyl transferase inhibition | 310,000 tested, 3.5% active | Potency, µM, inactives show max response, negative = inhibition, hits mostly inhibitors | Biochemical Sfp PPTase activity, qHTS | AID 1490; active means well fitted inhibition curve with a large enough effect; inconclusive means small, poorly fitted or top-dose-only effect, or another doubt; inactive means no such curve, though single readings can be large or run the other way;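 further: the enzyme is Sfp with the accession as filed and its product quenches rhodamine fluorescence; potency means the concentration at half of the fitted maximal effect; 0% = enzyme reaction without inhibitor and -100% = no enzyme wells; top concentration of the series not given in the record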
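After 15 min at room temperature with compound, 15 nM Sfp received 5 uM rhodamine-CoA plus 12.5 uM BHQ-2-ybbR (50 mM Hepes pH 7.6, 10 mM MgCl2). Rate came from the fluorescence difference over 30 min, ex 525/em 598 nm.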
TRPV1 potentiator = human TRPV1 potentiation. Q8NER1. TRPV1-expressing cells, Fluo-8 calcium influx, capsaicin EC20 potentiation; host cell line not named in the record; control for the full effect not named in the record. potentiation, % at 8.33 µM. 320,000 tested, 0.02% active. AID 540277; active means potentiation above 80%; inconclusive means 30% to 80%; inactive means below 30%; further: 0% is about no effect
Target sequence (Q8NER1 whole entry, looked up): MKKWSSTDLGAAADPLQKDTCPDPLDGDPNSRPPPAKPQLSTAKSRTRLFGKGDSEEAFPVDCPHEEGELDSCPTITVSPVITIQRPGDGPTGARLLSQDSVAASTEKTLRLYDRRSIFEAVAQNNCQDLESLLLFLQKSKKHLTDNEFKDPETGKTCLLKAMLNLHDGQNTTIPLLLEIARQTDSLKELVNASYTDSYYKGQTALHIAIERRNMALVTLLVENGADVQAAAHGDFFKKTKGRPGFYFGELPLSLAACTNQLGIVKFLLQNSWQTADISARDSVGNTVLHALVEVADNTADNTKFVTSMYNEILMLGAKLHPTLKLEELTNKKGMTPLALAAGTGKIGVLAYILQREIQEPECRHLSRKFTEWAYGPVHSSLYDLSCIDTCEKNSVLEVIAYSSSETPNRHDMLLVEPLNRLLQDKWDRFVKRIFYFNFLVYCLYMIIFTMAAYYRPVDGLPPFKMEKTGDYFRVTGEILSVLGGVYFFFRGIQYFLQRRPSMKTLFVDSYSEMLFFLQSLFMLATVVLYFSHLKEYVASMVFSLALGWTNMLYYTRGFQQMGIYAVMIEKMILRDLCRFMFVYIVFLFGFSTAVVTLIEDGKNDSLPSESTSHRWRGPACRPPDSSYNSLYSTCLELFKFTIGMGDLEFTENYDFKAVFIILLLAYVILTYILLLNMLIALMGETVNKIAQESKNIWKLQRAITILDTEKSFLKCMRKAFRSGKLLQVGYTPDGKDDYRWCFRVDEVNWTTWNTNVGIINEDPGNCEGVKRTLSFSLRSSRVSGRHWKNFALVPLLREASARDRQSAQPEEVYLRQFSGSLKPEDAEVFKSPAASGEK
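TRPV1-expressing cells were cultured overnight at 35.5C and loaded with Fluo-8 calcium dye for 40 to 90 min at room temperature. After a 10 s baseline, compound was added and calcium influx was read kinetically for 3 min (ex 480/em 520 nm).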
Menin MLL FP FL = menin-MLL binding inhibition, fluorescein peptide | AID 1766 | FP activity change, % at 61.4 µM | 290,000 tested, under 10 active | Fluorescence polarization, fluorescein-MLL peptide displacement from menin; inconclusive = falling polarisation curve, or a change in total fluorescence; inactive = total fluorescence flat and polarisation flat or rising; no compound was filed as active; the % refers to the polarisation; negative = inhibition;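 further: % of control where 0% means no effect; inhibitors lower the polarisation; unlabelled MLL peptide was the positive control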
D2 potentiator = human D2 receptor positive allosteric modulation; P14416; DiscoveRx D2 beta-arrestin cells, luminescence, 90 min; 100% = 57 uM dopamine signal; potentiation, % (no concentration beside the values); 360,000 tested, 0.23% active; AID 624464; active = potentiation of 50% or more; inconclusive = 30% to 50%; inactive = 30% or less;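 further: compound concentration not given in the record; tested on top of an EC20 dose of dopamine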
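PathHunter D2 cells, attached overnight at 37 deg C, received compound in DMSO plus dopamine at EC20 (50 nM final) for 90 min at 37 deg C. Beta-arrestin recruitment was read as luminescence after 1 h with detection reagent at ambient temperature.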
gsp ag = activates gsp, the McCune-Albright syndrome mutation; Potency, µM (series often up to 76.9 µM), without a hit: at the top dose activation (cAMP increase), hits mostly activators; 340,000 tested, 0.13% active; gsp mutant cells, cAMP HTRF, 30 min; control for the full effect not named in the record; active = well fitted activation curve with a large enough effect; inconclusive = small, poorly fitted or top-dose-only effect, or another doubt; inactive = no such curve, though single readings can be large or run the other way; cell line not stated here;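 further: phosphodiesterase inhibitor Ro 20-1724 added with compounds to block cAMP breakdown; potency means the concentration at half of the fitted maximal effect; nearly all actives have a fitted effect of over 60% in size; about a fifth of the inactives were tested at one dose only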
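Cells in DMEM/10% FBS with G418 were pretreated with compounds in DMSO plus […] (300 uM stock) for 30 min at 37C. cAMP was measured by HTRF (cAMP-d2 plus anti-cAMP antibody-K) after 30 min at room temperature.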
ClpP mod = qHTS Assay for Activators of ClpP; ATP-dependent Clp protease proteolytic subunit (Bacillus subtilis (strain 168)), P80244; purified B. subtilis ClpP, FRET peptide cleavage, 20 min; Potency, µM (highest dose often 57.5 µM), for inactives: at the highest dose activity change, negative = active; 340,000 tested, 1.9% active; active = well fitted falling curve with a large enough effect; inconclusive = small, poorly fitted or top-dose-only effect; inactive = no such curve, though single readings can be large or run the other way; further: potency means the concentration at half of the fitted maximal effect; the source files actives as falling curves though it sought activators and does not explain the sign; nearly all actives have a fitted effect of over 65% in size; many hits overshoot -100%
Target sequence (P80244 whole entry, looked up): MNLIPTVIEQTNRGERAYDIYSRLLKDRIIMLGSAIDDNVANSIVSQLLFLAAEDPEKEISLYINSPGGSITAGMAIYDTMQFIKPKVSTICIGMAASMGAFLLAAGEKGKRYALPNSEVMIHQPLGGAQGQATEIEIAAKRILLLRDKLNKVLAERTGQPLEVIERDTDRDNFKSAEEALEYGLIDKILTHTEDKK
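Purified B. subtilis ClpP, 10 microg/mL final in Tris/HCl pH8 with KCl, BSA, glycerol and Tween-20, cleaved an Abz/nitrotyrosine-quenched decapeptide. Fluorescence (ex 320, em 430) was read at 0 and 20 min at room temperature. Delta was normalized to 5.8 microM ADEP and DMSO/no-enzyme controls.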
gsp antag = gsp mutant antagonism; gsp-mutant cells, cAMP HTRF, 30 min; control for the full effect not named in the record; Potency, µM (series often up to 76.9 µM), for the others: at the top dose activity change, negative = inhibition, most hits filed as inhibitors; 340,000 tested, 0.4% active; active = falling curve of any shape with a large fitted effect; inconclusive = falling curve, mostly with a smaller effect; inactive = flat or rising curve; cell line not stated here;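 further: intracellular cAMP measured with PDE inhibitor Ro 20-1724 present during compound exposure; potency means the concentration at half of the fitted maximal effect; on the % scale 0 is the no-effect control and ±100 the full control effect; nearly all actives have a fitted effect of over 65% in size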
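HTRF cAMP measurement after 30 min RT detection following 30 min, 37C compound treatment alongside […] (added as 300 uM solution) in G418-selected cells seeded at 2000/well and grown 16–24 h.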
* marks the source's active call; other numbers are inactive results; u = inconclusive; x = not tested or not shown; & = joins results of further samples; [ ] = dose if it differs, or a comment.

SMILES	Sfp PPTase inh	TRPV1 potentiator	Menin MLL FP FL	D2 potentiator	gsp ag	ClpP mod	gsp antag
CCCCC(CC)CNC(=O)c1ccc2c(c1)OCO2 (stereo unspecified)	10%	7	1.3	6	u	-0.2%	-15%
O=[N+]([O-])c1cccc(Cl)c1N1CCOCC1	-9%	-13	0.4	-8	1%	-3.6%	4%
COc1cccc(NC(=O)C(=O)c2cn(CC(=O)N3CCOCC3)c3ccccc23)c1	11%	28	x	2	-4%	-0.3%	-14%
COc1ccccc1N(CN1CCCC1=O)C(=O)c1c(F)cccc1F	33%[activator]	4	-0.2	-1	10%	-2.9%	7%
CC(Sc1nncs1)C(=O)Nc1ccc(Cl)cn1 (stereo unspecified)	8%	-2	6.7	-31	0%	-0.2%	7%
Cn1nc(C(=O)NCc2ccccn2)c2ccccc2c1=O	-25%	21	0.5	-5	-4%	-2.8%	8%
CCn1cnc2sc(C(=O)N3CCN(c4ccc(OC)cc4)CC3)c(C)c2c1=O	2%	x	0.9	-4	-6%	-2.0%	12%
Cc1cccc(NC(=O)CN2CCN(C(=O)c3ccc(OCc4cn5ccccc5n4)cc3)CC2)c1C	x	-2	x	3	-33%[inhibitor]	4.2%	-7%
CC(=O)/C=C(/C)NC(Cc1c[nH]c2ccccc12)C(=O)O (stereo unspecified)	-11%&8%	-1&-3	1.3&9.9	-5&-7	u	-0.3%&-3.0%	5%&2%
CCO/C=C1/C(=O)N(C(C)=O)c2ccccc21	u	-4	1.5	-21	0%	-1.1%	-1%
Cc1nnc(Sc2nc3c(c(=O)[nH]c(=O)n3C)n2CCCc2ccccc2)s1	1%	-8	1.2	x	x	x	x
CCOC(=O)c1sc(=S)n(-c2ccccc2)c1N	u	-10	-4.6	-1	29%	-1.5%	4%

Full records as entered above.
CCn1cnc2sc(C(=O)N3CCN(c4ccc(OC)cc4)CC3)c(C)c2c1=O is listed with Sfp PPTase inh = 2%; TRPV1 potentiator = x; Menin MLL FP FL = 0.9; D2 potentiator = -4; gsp ag = -6%; ClpP mod = -2.0%; gsp antag = 12%
CC(=O)/C=C(/C)NC(Cc1c[nH]c2ccccc12)C(=O)O (stereo unspecified) is listed with Sfp PPTase inh = -11%&8%; TRPV1 potentiator = -1&-3; Menin MLL FP FL = 1.3&9.9; D2 potentiator = -5&-7; gsp ag = u; ClpP mod = -0.3%&-3.0%; gsp antag = 5%&2%

Next section.
SMILES	Sfp PPTase inh	TRPV1 potentiator	Menin MLL FP FL	D2 potentiator	gsp ag	ClpP mod	gsp antag
CCc1nnc(SCC(=O)Nc2nc(C)c(C(=O)N(C)C)s2)n1CC	0%	-13	x	-3	-5%[15.4 µM]	-1.2%	10%
COCCSc1ccccc1C(=O)N1CCOCC1	79µM*	3	-2.6	-11	-9%	-0.8%	7%
Cc1nc2sc(C(N)=O)c(N)c2c2c1CCCC2	79µM*	-12	0.7	-2	24%	x	6%
N#Cc1ccccc1S(=O)(=O)N1CCN(C(=O)c2cc3c(s2)CCC3)CC1	x	-8	x	-17	8%	-5.1%	-5%
COc1cccc(CNC(=O)C2CCCN(c3nc4ccccc4o3)C2)c1 (stereo unspecified)	4%	0	9.4	-8	2%	0.3%	-12%
CSc1nn(-c2ccc(C(=O)OCC(=O)NC(=O)NC(C)C)cc2)c(=S)s1	-6%	2	1.1	-11	-4%	-12%	-14%
O=C1NCCCc2nonc21	13%	21	-0.2	-6	u	1.2%	1%
CCCCC(O)CN1CCC(c2ccccc2)CC1 (stereo unspecified)	19%	5	-1.5	-47	3%	-3.5%	9%
COc1ccc(C2(C(=O)NCc3ccco3)CCCC2)cc1OC	14%	4	3.1	7	1%	0.9%	4%
O=C(CSc1ccccc1)NC1CC1	x	x	x	-9	-72%[inhibitor]	1.1%	x
Cc1nnc(NC(=O)c2cccc(S(=O)(=O)N3CCN(C)CC3)c2)s1	x	16	x	-9	1%[15.4 µM]	-0.4%	7%
Cc1nc2cc(NS(=O)(=O)c3cccc4cccnc34)ccc2s1	7%	-4	-5.4	1	-8%[15.4 µM]	0.2%	-7%
CCNC(=S)N(Cc1cc2c(C)ccc(C)c2[nH]c1=O)C1CCCC1	10%	-6	0.8	-8	3%	-11%	-9%
CN(C)/C=C/C(=O)c1ccncc1	10%	-2	0.0	-1	-4%	x	4%
Cc1ccc(NC(=O)CSc2ncn[nH]2)c([N+](=O)[O-])c1	x	x	x	-10	-45%[inhibitor]	0.6%	-6%
CCCCN1CC(=O)N2[C@@H]3c4cc(Br)ccc4OC[C@@H]3[C@H](C(=O)OCC)[C@]2(C)C1=O	x	x	x	-6	x	-4.1%	-6%
CC(C)Cc1nnc(NC(=O)CCC(=O)N2CCN(c3ccccc3)CC2)s1	12%	2	0.7	-8	-6%	-3.3%	7%
Cc1ccc(/C=N/NC(=O)CSc2nc3ccccc3[nH]2)o1	-38%	11	x	-1	-6%[15.4 µM]	x	9%
O=C(CNS(=O)(=O)c1ccc2ccccc2c1)OCc1nnc(-c2ccccc2)o1	-2%	-1	3.4	3	24%	-2.8%	0%
CC1CCC/C(=C\Nc2ccc(C(=O)O)c(O)c2)C1=O (stereo unspecified)	50µM*	11	-4.4	-1	-8%[15.4 µM]	x	-3%
Cc1cc(C)c(NC(=O)/C(=C/c2ccco2)c2ccccc2)c(C)c1	35µM*	-3	u	-12	-8%	-1.5%	40µM*
COc1ccccc1Oc1cc(C#N)c(C#N)cc1-n1nnc2ccccc21	8%	8	1.0	11	2%	-4.4%	u
O=c1[nH]cnc(O)c1C(c1ccc([N+](=O)[O-])cc1)c1c(O)nc[nH]c1=O	3%	0	2.4	-29	-15%	1.0%	8%
CCOc1ccccc1C1CC(=O)Nc2cc(OC)c(OC)c(OC)c21 (stereo unspecified)	-2%	-20	2.3	-30	-23%	0.9%	2%
COc1ccc(OC)c(C(=O)CSc2nc3ccccc3n2CC(=O)NC(C)(C)C)c1	11%	1	0.7	-14	14%	40%	-4%
Cc1cc(-c2ccccc2)c2nncn2n1	-4%	u	0.6	-1	19%	7.9µM*	7%
CC(Sc1nnc(NC2CC2)s1)C(=O)Nc1ccc(S(N)(=O)=O)cc1 (stereo unspecified)	x	x	x	-7	28%	x	1%
COC(=O)CN(c1ccc(F)cc1)S(=O)(=O)c1ccc2c(c1)OCCO2	8%	u	-1.4	-5	-18%	1.1%	-9%
c1ccc(CCNc2nc(-c3ccncc3)nc3ccccc23)cc1	u	-10	3.3	-9	3%[15.4 µM]	x	-15%
CSc1ccc(CCNC(=O)CN2C(=O)CCSc3ccccc32)cc1	21%	17	6.9	-4	-9%	x	2%
CCCc1nc2ccccc2c(C(=O)OCC(=O)Nc2c(C)n(C)n(-c3ccccc3)c2=O)c1CC	14%	-2	-1.9	-4	-53%[inhibitor]	-1.1%	-7%
O=C(Nc1ccc2nc(N3CCOCC3)sc2c1)c1ccccc1	x	-4	x	2	2%	-2.5%	16%
CCOC(=O)C1=C(C)OC(N)=C(C#N)C1c1ccoc1 (stereo unspecified)	-3%	30	-1.1	-2	-2%	-4.4%	-5%
C=C1C[C@H](O[C@@H]2O[C@H](CO)[C@@H](O)[C@H](O)[C@H]2O)[C@@H]2[C@H](OC(=O)[C@H]2C)[C@H]2[C@H](C)[C@H](O)C[C@@H]12	x	x	x	-8	x	-0.4%	10%
COc1ccc(S(=O)(=O)N2CCCCC2)cc1NC(=O)c1ccc(=O)[nH]c1	6%	8	0.1	2	10%[15.4 µM]	x	7%
COP(=O)(OC)C(NC(=O)Nc1ccccc1)c1ccccc1 (stereo unspecified)	13%	x	-0.6	-5	-10%	-0.9%	17%
COc1ccccc1NC(=S)NC(NC(=O)CC(C)C)C(Cl)(Cl)Cl (stereo unspecified)	8%	3	0.6	-8	16%	-0.1%	-8%
CCCCC[C@H](O)/C=C/[C@@H]1[C@@H](C/C=C\CCCC(=O)O)[C@H]2CO[C@@H]1C2	27%&0%&16%	12	0.7&3.1	-9	x	-1.1%	-2%
Cc1cc(C)n2nc(C(=O)N3CCOCC3)nc2n1	5%	11	1.9	-3	-25%	-3.1%	11%
Cc1nn(-c2ccccc2)c(C)c1/C=N/NC(=O)CSc1nnc(SCc2ccccc2Cl)s1	12%	10	-3.7	-6	u	-1.4%	-3%
CSCCC(NC(=O)c1ccco1)C(=O)OCC(=O)Nc1sccc1C#N (stereo unspecified)	-6%	6	1.2	x	x	x	x
CC1(C)NC(=O)N(CC(O)COc2ccccc2[N+](=O)[O-])C1=O (stereo unspecified)	15%	-4	-4.6	1	-31%[inhibitor]	x	3%
COc1ccc(-c2nnc(SCC(=O)c3ccc[nH]3)n2-c2ccccc2)cc1	5%	-3	3.6	-24	1%	-2.2%	-10%
COCCn1c(C)cc(C(=O)CSc2ncnc3sc4c(c23)CCC4)c1C	4%	-2	0.6	15	6%	0.1%	1%
Cc1ccc(CNC(=O)C2CC(=O)N(C3CCCCCCC3)C2)cc1 (stereo unspecified)	10%	-39	2.5	5	2%	-3.3%	2%
Cc1sc2ncnc(SCC(=O)Nc3nc(-c4ccc(F)c(F)c4)cs3)c2c1C	-6%	6	-2.0	0	9%[15.4 µM]	x	-2%
COc1ccc(C(CNC(=O)CCNS(=O)(=O)c2ccc(Br)cc2)N2CCOCC2)cc1 (stereo unspecified)	x	x	x	-5	1%	0.3%	4%
CC(C)NC(=O)c1onc(CSc2ccc(F)c(F)c2)c1C(=O)O	79µM*	-6	2.1	-8	u	1.0%	-3%
Nc1nnnn1/N=C/C=C/c1ccccc1	6%	22	3.0	9	u	-0.5%	-4%
Cn1c(N)c(C(=O)COC(=O)c2cc(-c3ccco3)nc3ccccc23)c(=O)n(Cc2ccccc2)c1=O	45µM*	3	u	x	x	x	x
CC(C)O/N=C1\C(=O)N(c2ccccc2)c2ccccc21	18%	-16	-1.8	-4	10%	x	-16%
Cn1c(=O)n(CC(=O)Nc2ccccc2)c2ccccc21	17%	6	0.3	0	-21%	1.7%	-1%
C[C@@H]1CN([C@@H](C)CO)S(=O)(=O)c2ccc(C#Cc3cccc(F)c3)cc2O[C@H]1CN(C)S(=O)(=O)c1cn(C)cn1	x	x	x	-9	-25%	-4.4%	x
CC(C)(C)c1ccc(-c2nn(CCC#N)cc2/C=N/O)cc1	13%	-4	0.1	-5	-36%[inhibitor]	-0.3%	8%
